Screening results deposited in PubChem by ICCB-Longwood Screening Facility, Harvard Medical School.
BmaI1 enzyme: BmaI1 acyl-homoserine lactone synthase inhibition – biochemical, fluorescence intensity, with counterscreen (AID 720554); actives 0.4% (n = 12,000); BmaI1 enzyme assay, fluorescence intensity; hits give high values; test concentration not given here; a few actives read low; strong numbers were not always called active; inhibition, %;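 active = both replicates within 2 robust z-scores of the inhibited control and a quiet counterscreen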;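 also: 0% = uninhibited enzyme and 100% = inhibited control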
BmaI1 enzyme counterscreen: recorded beside BmaI1 enzyme, whose call it bears; inhibition, %; measured here: counterscreen; design of the counterscreen not given here;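 first of two replicates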
Numbers without * were called inactive. These rows are one share of the data, so the mix of outcomes need not match the whole.

#1 CN(C)C(=O)COC(=O)c1ccc(Oc2ccc(C(=O)OCC(=O)N(C)C)cc2)cc1
  BmaI1 enzyme = 19 | BmaI1 enzyme counterscreen = 12
#2 O=C(CCS(=O)(=O)c1ccccc1)Nc1ccccc1N1CCOCC1
  BmaI1 enzyme = 11 | BmaI1 enzyme counterscreen = 4
#3 O=C(NN1CCOCC1)c1ccc(C(=O)c2ccccc2)cc1
  BmaI1 enzyme = 7 | BmaI1 enzyme counterscreen = 5
#4 c1ccc(N2CCN(CSc3nc4ccccc4s3)CC2)cc1
  BmaI1 enzyme = -3 | BmaI1 enzyme counterscreen = 0
#5 COCC(C)n1c(Sc2ncnc3sccc23)nc2ccccc2c1=O (stereo not drawn)
  BmaI1 enzyme = 9 | BmaI1 enzyme counterscreen = 16
#6 C=CCN1C(=O)c2ccc(C(=O)OCC(=O)c3cc(C)n(-c4cc(C)on4)c3C)cc2C1=O
  BmaI1 enzyme = 17 | BmaI1 enzyme counterscreen = 8
#7 NC(=O)N/N=C/c1ccc(-c2ccc(SC(F)F)cc2)o1
  BmaI1 enzyme = -4 | BmaI1 enzyme counterscreen = -4
#8 COc1cccc(-c2nnc(SCCOc3ccccc3)n2C)c1
  BmaI1 enzyme = 14 | BmaI1 enzyme counterscreen = 10
#9 O=C(O)c1cc2ccccc2nc1Cl
  BmaI1 enzyme = -44 | BmaI1 enzyme counterscreen = -49
#10 C=CCn1c(SCC(=O)NC(C)(C#N)C(C)C)nc2ccccc2c1=O (stereo not drawn)
  BmaI1 enzyme = 2 | BmaI1 enzyme counterscreen = 2
#11 N#C/C(=C\c1ccc2c(c1)OCO2)C(=O)OCCN1CCCC1=O
  BmaI1 enzyme = -8 | BmaI1 enzyme counterscreen = -14
#12 Cc1noc(C)c1CC(=O)N1CCC2CCCCC2C1 (stereo not drawn)
  BmaI1 enzyme = 0 | BmaI1 enzyme counterscreen = -10
#13 N#CC1(N2CCNCC2)CCCCC1
  BmaI1 enzyme = -6 | BmaI1 enzyme counterscreen = -6
#14 COc1ccc(OCCCC(=O)OCc2nc3ccccc3[nH]2)cc1
  BmaI1 enzyme = 8 | BmaI1 enzyme counterscreen = 11
#15 N#CCn1c(COC(=O)c2ccc(S(=O)(=O)N3CCCCCC3)cc2)nc2ccccc2c1=O
  BmaI1 enzyme = 14 | BmaI1 enzyme counterscreen = 4

#16 Cc1ccc(-n2c(SC/C(O)=C(\C#N)c3nc4ccccc4[nH]3)nc3ccccc3c2=O)cc1
  BmaI1 enzyme = -14 | BmaI1 enzyme counterscreen = -10
#17 CC(C)[N+](C)(CCOC(=O)C1c2ccccc2Oc2ccccc21)C(C)C
  BmaI1 enzyme = 0 | BmaI1 enzyme counterscreen = 12
#18 Cc1ccc(C)c(NC(=O)CN(C)C(=O)NCc2cccnc2)c1
  BmaI1 enzyme = 14 | BmaI1 enzyme counterscreen = 10
#19 CN(C)C(=O)COC(=O)c1ccc(S(=O)(=O)N2CCCC2)cc1
  BmaI1 enzyme = -2 | BmaI1 enzyme counterscreen = -4
#20 FC(F)(F)c1ccccc1NNC(=S)NCCN1CCOCC1
  BmaI1 enzyme = 24 | BmaI1 enzyme counterscreen = -15
#21 O=c1cc(CSc2nnc(N3CCOCC3)n2-c2cccc(F)c2)nc2sc3c(n12)CCCC3
  BmaI1 enzyme = 8 | BmaI1 enzyme counterscreen = 2
#22 O=c1n(Cc2cccc(C(F)(F)F)c2)nnn1-c1ccccc1
  BmaI1 enzyme = 12 | BmaI1 enzyme counterscreen = 20
#23 CC(C)NCC(O)COc1ccc(COCCOC(C)C)cc1 (stereo not drawn)
  BmaI1 enzyme = -4 | BmaI1 enzyme counterscreen = 4
#24 CC1CCCCC1NC(=O)NC(=O)CSc1nnnn1-c1ccc(Cl)cc1 (stereo not drawn)
  BmaI1 enzyme = 0 | BmaI1 enzyme counterscreen = 0
#25 CCCCn1c2c(c(=O)[nH]c1=O)C(c1ccc(OC(F)F)cc1)C1=C(CCCC1=O)N2 (stereo not drawn)
  BmaI1 enzyme = -92 | BmaI1 enzyme counterscreen = -68
#26 Nn1c(SCc2cn3ccccc3n2)nnc1C1CC1
  BmaI1 enzyme = 6 | BmaI1 enzyme counterscreen = 0
#27 O=c1c2ccccc2ncn1CCOc1ccc(Br)cc1
  BmaI1 enzyme = 17 | BmaI1 enzyme counterscreen = 0
#28 Cc1cc2nc(NC3CCS(=O)(=O)C3)c3ccccc3n2n1 (stereo not drawn)
  BmaI1 enzyme = 20 | BmaI1 enzyme counterscreen = 12
#29 CCN(Cc1ccc(OC)c(F)c1)c1nc(C(F)(F)F)nc2ccccc12
  BmaI1 enzyme = 24 | BmaI1 enzyme counterscreen = 17
#30 c1cncc(N=c2scc(-c3cccs3)n2CCCn2ccnc2)c1
  BmaI1 enzyme = 10 | BmaI1 enzyme counterscreen = 10

#31 O=C(N/N=C1\C/C(=N\NC(=O)c2ccncc2)c2ccccc21)c1ccncc1
  BmaI1 enzyme = 10 | BmaI1 enzyme counterscreen = -19
#32 CN(C)c1ccc(C(=O)OCC(=O)C(C)(C)C)cc1
  BmaI1 enzyme = 9 | BmaI1 enzyme counterscreen = 12
#33 Cc1ccc(NC(=C(C#N)C#N)c2ccccc2)cc1
  BmaI1 enzyme = -4 | BmaI1 enzyme counterscreen = 0
#34 O=C(NCCO)C1(c2ccc(Cl)cc2)CCCC1
  BmaI1 enzyme = -5 | BmaI1 enzyme counterscreen = 5
#35 N#Cc1c(N2CCCC2)nc(N)c2c(N)nc(N3CCCC3)cc12
  BmaI1 enzyme = 14 | BmaI1 enzyme counterscreen = 6
#36 Cc1nn(-c2ccccc2)c(C)c1NC(=O)CN1CCCCC1C (stereo not drawn)
  BmaI1 enzyme = -8 | BmaI1 enzyme counterscreen = -6
#37 O=c1ccc(C(F)(F)F)cn1Cc1cc(=O)n2ccsc2n1
  BmaI1 enzyme = 8 | BmaI1 enzyme counterscreen = -2
#38 C/C(N)=C(/C#N)C(=O)CN1C(=O)NC(C)(c2ccc3c(c2)OCO3)C1=O (stereo not drawn)
  BmaI1 enzyme = 9 | BmaI1 enzyme counterscreen = 7
#39 CSc1c(C)c(C#N)c(=O)n(NC(=O)COc2ccc(C#N)cc2)c1C
  BmaI1 enzyme = 20 | BmaI1 enzyme counterscreen = 6
#40 Cc1sc2nc(CSCC(=O)c3cc(C)n(-c4ccc(Br)cc4)c3C)[nH]c(=O)c2c1C
  BmaI1 enzyme = 4 | BmaI1 enzyme counterscreen = 2
#41 COc1ccc(NC(=O)CN(C)C(=O)C2CC(=O)N(c3cccc(C)c3C)C2)cc1 (stereo not drawn)
  BmaI1 enzyme = 8 | BmaI1 enzyme counterscreen = 0
#42 O=C(CCN1c2ccccc2Sc2ccccc21)OCc1nnc(-c2ccccc2)o1
  BmaI1 enzyme = 3 | BmaI1 enzyme counterscreen = -20
#43 O=C(CCC1CCCC1)OCC(=O)c1ccc2c(c1)OCO2
  BmaI1 enzyme = -10 | BmaI1 enzyme counterscreen = -8
#44 Cc1nn2c(=O)cc(COC(=O)C(Cc3ccccc3)NC(=O)c3ccccc3)nc2s1 (stereo not drawn)
  BmaI1 enzyme = 8 | BmaI1 enzyme counterscreen = 8
#45 COc1ccc(COc2ncnc3ccccc23)cc1F
  BmaI1 enzyme = 20 | BmaI1 enzyme counterscreen = 1

#46 C=CCNc1nc(C(=O)OCC(=O)N2CC(C)OC(C)C2)cs1 (stereo not drawn)
  BmaI1 enzyme = 14 | BmaI1 enzyme counterscreen = 14
#47 O=C(CCC(=O)N1CCN(S(=O)(=O)c2ccccc2)CC1)c1cccs1
  BmaI1 enzyme = 10 | BmaI1 enzyme counterscreen = 6
#48 O=C(CNc1ccccc1)N/N=C/c1ccc(N2CCOCC2)cc1
  BmaI1 enzyme = 14 | BmaI1 enzyme counterscreen = 3
#49 O=C(CSc1nnc(Nc2ccccc2)s1)NCC1CCCO1 (stereo not drawn)
  BmaI1 enzyme = 2 | BmaI1 enzyme counterscreen = 2
#50 CNCc1cnn(-c2ccccc2)c1
  BmaI1 enzyme = 2 | BmaI1 enzyme counterscreen = 1
#51 COc1cccc(CNC(=O)CC2C(=O)Nc3c2c(=O)n(C)c(=O)n3Cc2ccccc2)c1 (stereo not drawn)
  BmaI1 enzyme = 15 | BmaI1 enzyme counterscreen = -6
#52 CC(C(O)c1ccccc1)N(C)S(=O)(=O)c1cccs1 (stereo not drawn)
  BmaI1 enzyme = 10 | BmaI1 enzyme counterscreen = 12
#53 CC1CN(C2=CC(=O)CCC2)CC(C)O1 (stereo not drawn)
  BmaI1 enzyme = 4 | BmaI1 enzyme counterscreen = -1
#54 COc1cc(C(=O)Nc2nccs2)cc(OC)c1C
  BmaI1 enzyme = 6 | BmaI1 enzyme counterscreen = 18
#55 CN(CC(=O)O)C1=NS(=O)(=O)c2ccccc21
  BmaI1 enzyme = 11 | BmaI1 enzyme counterscreen = 10
